RanGTP-Impb inh: inhibitors of RanGTP-importin-beta interaction, primary screen, biochemical, FRET, CFP-Ran, YFP-importin-beta, homogeneous; inhibition, % (test concentration not listed); 300,000 tested, 1.1% active; cell-free CFP-Ran/YFP-importin-beta FRET ratio;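 active = most replicates above 15%; inconclusive = exactly half above 15%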;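 note: 0% = DMSO wells and 100% = Ran loaded with GDP instead of GTP; wells of about 40 µL received 100 nL stock; the first replicate is given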
HNF4A DNA FP: change in binding of human HNF4 alpha to DNA | P41235 | HNF4a-FITC DNA binding, fluorescence polarization, 1 h | activity change, % at 10 µM | 360,000 tested, 0.3% active; in the data active = activity change above about 30%, passing the limit was not always enough;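 note: controls were the assay level and a saturating level of protein; the project sought stronger binding though the title names inhibitors; some compounds called inactive have numbers as strong as hits; positive values seem to mean higher polarization but the record does not say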
Vif A3G: inhibitors of Vif binding to APOBEC3G peptide, primary screen, biochemical, TR-FRET, GST-Vif 1-94, biotin-A3G peptide, dose response retest (AID 1117319). TR-FRET GST-Vif / biotin-A3G peptide binding; higher % means a stronger effect; test concentration not given here; strong numbers were not always called active. inhibition, %; hits with a dose series show IC50 in µM. 260,000 tested, 0.57% active;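 active = above the screen mean plus three standard deviations and confirmed in dose response; inconclusive = results disagree or hit not tested in dose response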;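 note: Vif residues 1-94 fused to GST binding biotinylated APOBEC3G peptide 110-148; 0% = full assay without inhibitor and 100% = GST in place of GST-Vif; retest series ran down from 100 µM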
MLL AF4-AF9 inh: inhibitors of human MLL-AF4/AF9 interaction | 350,000 tested, 0.47% active | AlphaScreen, biotin-AF4 peptide binding to FLAG-AF9 | inhibition, % at 10 µM;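 active = every replicate reaching a set inhibition limit, whatever the replicate mean, cut at about 25% in these data; inconclusive = mean inhibition reaches that limit but some replicates miss it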;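 note: 0% = plate neutral control median and 100% = total signal loss; the record names both 10 and 1 µM as test concentration; the first replicate is given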
Target sequence (P42568 whole entry, looked up): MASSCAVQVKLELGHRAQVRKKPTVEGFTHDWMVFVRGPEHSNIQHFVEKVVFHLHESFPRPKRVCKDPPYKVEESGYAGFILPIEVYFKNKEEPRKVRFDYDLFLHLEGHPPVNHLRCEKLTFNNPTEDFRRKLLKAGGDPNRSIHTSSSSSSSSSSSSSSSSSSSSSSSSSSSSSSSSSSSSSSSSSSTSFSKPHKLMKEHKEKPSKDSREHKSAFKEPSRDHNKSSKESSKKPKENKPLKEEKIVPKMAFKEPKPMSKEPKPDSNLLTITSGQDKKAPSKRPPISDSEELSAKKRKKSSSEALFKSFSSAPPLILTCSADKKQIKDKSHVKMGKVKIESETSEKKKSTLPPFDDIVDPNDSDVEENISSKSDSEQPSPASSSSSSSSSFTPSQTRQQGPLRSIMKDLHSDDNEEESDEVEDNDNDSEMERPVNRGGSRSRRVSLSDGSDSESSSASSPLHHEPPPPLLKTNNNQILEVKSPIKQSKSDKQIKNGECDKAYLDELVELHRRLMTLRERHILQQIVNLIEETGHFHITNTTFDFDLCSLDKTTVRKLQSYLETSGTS
UCH37 DUB inh: human UCH37 deubiquitinating enzyme inhibition | 330,000 tested, 0.33% active | AID 588478 | inhibition, % (concentration not given with the values) | purified proteasome/UCH37, Ub-AMC cleavage fluorescence;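 active = mean of two replicates above 20%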;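 note: 0% = compound-free wells with enzyme and 100% = wells lacking proteasome; stock transfer was 100 nL into about 20 µL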
Target sequence (Q9Y5K5 whole entry, looked up): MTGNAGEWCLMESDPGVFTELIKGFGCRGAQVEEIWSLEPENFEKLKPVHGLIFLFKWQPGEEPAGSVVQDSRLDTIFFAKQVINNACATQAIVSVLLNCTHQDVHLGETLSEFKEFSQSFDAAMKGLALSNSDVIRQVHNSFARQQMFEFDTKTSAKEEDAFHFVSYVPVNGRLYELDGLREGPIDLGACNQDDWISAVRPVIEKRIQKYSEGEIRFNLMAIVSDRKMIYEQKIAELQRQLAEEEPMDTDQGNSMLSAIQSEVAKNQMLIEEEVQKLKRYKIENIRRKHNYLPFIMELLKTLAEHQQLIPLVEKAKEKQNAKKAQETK
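Material: Human UCH37 enzyme supplied as purified proteasome complex | Schedule: 30 min preincubation with enzyme, 25 min cleavage at room temperature | Detection: AMC fluorescence 355/460 nm | Measure: % inhibition of Ub-AMC cleavage fluorescence | Controls: Wells without proteasome as full block, compound-free enzyme plus substrate as uninhibited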
E coli growth: inhibitors of Escherichia coli growth; OD600, 23 h; active compounds read low; OD600 absorbance (test concentration not listed); 330,000 tested, 0.21% active; AID 1053175;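 active = OD600 absorbance below the run mean of sample wells minus 3.6 SD, in any replicate, cut at about 0.56 in these data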;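 note: stock transfer was 300 nL into about 60 µL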
FGF22 binding: shifts melting point of recombinant human FGF22; Q9HCT0; recombinant FGF22 thermal shift, SYPRO orange fluorescence; percent of sucrose octasulfate shift, DMSO zero; calls only at 9.99 µM; 340,000 tested, 1.5% active; AID 651658;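 active = melting point raised past a set limit in the mean and every replicate; inconclusive = no clear call; three in four hits are not shown here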
Target sequence (Q9HCT0 whole entry, looked up): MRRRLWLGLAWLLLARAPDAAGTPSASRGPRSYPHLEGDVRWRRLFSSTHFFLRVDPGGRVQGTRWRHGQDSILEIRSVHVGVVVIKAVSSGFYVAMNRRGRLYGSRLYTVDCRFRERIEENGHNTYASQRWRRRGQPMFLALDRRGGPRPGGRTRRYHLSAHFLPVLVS
* hit, by the source's call; i = inactive; ? = inconclusive; · = no result given.

SMILES | RanGTP-Impb inh | HNF4A DNA FP | Vif A3G | MLL AF4-AF9 inh | UCH37 DUB inh | E coli growth | FGF22 binding
O=C(O)c1ccc(/C=C2\SC(=S)N(Nc3ccccc3)C2=O)cc1 | -2.0 | 2.8 | 22.5% | -0.6 | 7.7 | 0.7 | ·
CCOC(=O)c1cc2c(=O)n3ccccc3nc2n(C)c1=NC(=O)c1c(-c2c(F)cccc2Cl)noc1C | ? | 3.4 | · | 5.6 | -110.7 | 0.693 | i
CC(C)(C)OC(=O)N1CCc2onc(-c3ccc(Br)cc3)c2C1=O | · | -2.4 | 2.2% | -1.5 | · | · | i
COc1cc(C(=O)NNC(=O)c2ccc(S(=O)(=O)N3CCCCC3)cc2)cc(OC)c1OC | 0.5 | -1.7 | · | -3.5 | 0.9 | 0.698 | i
Cc1sc(NC(=O)C2=COCCO2)nc1-c1ccc(Cl)cc1 | -0.4 | -3.0 | 4.7% | -1.6 | 3.3 | 0.735 | i
COc1ccc(Cl)cc1NC(=O)CC(C)c1ccccc1 (stereo unspecified) | 0.8 | -2.9 | 2.4% | · | 3.8 | 0.748 | ·
C(=NC12CN3CN(CN(C3)C1)C2)c1ccc2c(c1)OCO2 | -0.2 | 1.2 | -6.1% | · | 0.6 | 0.721 | ·
O=C(Oc1ccc(C(=S)N2CCCCC2)cc1)c1ccccc1 | 2.9 | 3.2 | 32.3% | 3.1 | 3.5 | 0.666 | i
Cn1c(CN2CCCC2)nc2cc(NS(=O)(=O)c3ccc(Cl)cc3)ccc21 | 3.8 | 4.3 | 7.0% | · | 1.1 | 0.716 | ·
O=C(NC1CCCC1)C1=COCCO1 | 0.5 | 5.0 | -3.9% | · | · | 0.708 | ·
Cn1c(=O)[nH]c(=O)c2c1nc(N1CCCCC1)n2CCCSc1nc2ccccc2s1 | 2.7 | 1.2 | -11.5% | · | 3.6 | 0.732 | ·
COc1ccc(CC2(CO)CCN(Cc3ccc(NC(C)=O)cc3)CC2)cc1 | 1.1 | -0.4 | 22.4% | 1.5 | 4.7 | 0.659 | i
Cc1cccc([C@@H]2[C@@H]3C(=O)N(Cc4ccccc4)C(=O)[C@@H]3[C@]3(Cc4ccccc4)C(=O)N(c4cccc(Cl)c4)C(=O)N23)c1 | 1.4 | 1.3 | · | 11.8 | 4.5 | · | i
CC1=NN(C(N)=S)C(=O)C1N=Nc1ccc(O)cc1 (stereo unspecified) | -0.5 | 6.5 | · | -2.9 | 16.9 | 0.521 | i
CN(C)C(=O)c1ccc(Nc2nc(-c3cccs3)nc3ccccc23)cc1 | -0.1 | 1.5 | · | 0.0 | -38.6 | 0.704 | i
Cc1cccc(NC(=O)CSc2nnc(NC(=O)CN3CCOCC3)s2)c1 | 6.8 | -0.6 | 1.0% | · | 1.2 | 0.732 | ·
O=C(/C=C/c1ccccc1[N+](=O)[O-])Nc1ccccc1 | 3.6 | -0.4 | · | -0.5 | 6.2 | 0.691 | i
NS(=O)(=O)c1cccc(NC(=O)CN2CCN(Cc3ccc4c(c3)OCO4)CC2)c1 | 2.9 | 4.6 | 21.6% | · | 2.7 | 0.713 | ·
COc1ccc(Cl)cc1S(=O)(=O)N1CCN=C1c1ccccc1 | -0.1 | -4.5 | · | 0.1 | 1.8 | 0.638 | i
O=C(CSc1nnc(-c2ccc(O)cc2)n1Cc1ccco1)N1CCc2ccccc2C1 | -0.9 | 1.8 | -0.4% | · | 0.4 | 0.637 | ·
COc1ccc(-n2c(SCc3cccnc3)nc3c(c2=O)SCC3)cc1OC | 5.9 | -1.1 | -1.8% | -12.4 | 4.4 | 0.673 | i
CCc1ccc(-c2ccc3nnc(SCC(=O)NCC4CCCO4)n3n2)cc1 (stereo unspecified) | 3.0 | 0.4 | -2.9% | 8.6 | -41.9 | 0.673 | i
O=C(O)CCC(=O)Nc1ccc(-c2nc3ccc(C(=O)c4ccccc4)cc3[nH]2)cc1 | ? | 0.8 | · | 0.1 | -0.1 | 0.622 | i
O=C(O)C1CC=CCC1C(=O)N1CCCC1 (stereo unspecified) | -2.0 | -3.8 | -7.9% | · | 3.9 | 0.713 | ·
CCSc1nc(O)cc(=O)n1CC | -0.7 | 2.4 | · | -2.6 | · | · | i
CCOc1ccc(N2C(=O)CC(N3CCOCC3)C2=O)cc1 (stereo unspecified) | -2.6 | -3.1 | 0.5% | 2.6 | 2.9 | 0.69 | i
COc1ccc(C2(C(=O)Nc3c(C)n(C)n(-c4ccccc4)c3=O)CCCC2)cc1OC | 6.1 | 1.3 | 20.2% | · | -0.9 | 0.688 | ·
O=C(Nc1ccccc1)c1ccc(S(=O)(=O)N(CCO)CCO)cc1 | 2.0 | -3.9 | 67.5% | · | 1.8 | 0.744 | ·
CNS(=O)(=O)c1cccc(C(=O)OCC(=O)Nc2ccccc2F)c1 | -1.1 | 2.6 | · | -1.1 | 2.0 | 0.702 | i
COc1ccc(C(CNC(=O)C(C)c2ccc3cc(OC)ccc3c2)N(C)C)cc1 (stereo unspecified) | 0.4 | 1.9 | · | -6.4 | 0.7 | 0.645 | i

Two compounds picked at random from the list so far:
SMILES | RanGTP-Impb inh | HNF4A DNA FP | Vif A3G | MLL AF4-AF9 inh | UCH37 DUB inh | E coli growth | FGF22 binding
Cc1sc(NC(=O)C2=COCCO2)nc1-c1ccc(Cl)cc1 | -0.4 | -3.0 | 4.7% | -1.6 | 3.3 | 0.735 | i
CC1=NN(C(N)=S)C(=O)C1N=Nc1ccc(O)cc1 (stereo unspecified) | -0.5 | 6.5 | · | -2.9 | 16.9 | 0.521 | i

(list continues)
SMILES | RanGTP-Impb inh | HNF4A DNA FP | Vif A3G | MLL AF4-AF9 inh | UCH37 DUB inh | E coli growth | FGF22 binding
CC(Oc1ccccc1)C(=O)Nc1ccccc1F (stereo unspecified) | 0.2 | -0.5 | 0.5% | 0.1 | 4.0 | 0.653 | i
O=C(O)CCc1ccc(-c2ccc(F)cc2)n1NC(=O)c1ccco1 | 4.1 | -6.8 | 8.4% | · | -1.1 | 0.802 | ·
O=C(NCCCNC(=O)c1ccco1)c1ccc(Cl)c(Cl)c1 | 0.8 | 2.6 | · | -5.7 | 2.3 | 0.704 | i
O=C(CCNC(=O)C1CCN(S(=O)(=O)c2ccc(F)cc2)CC1)NCCc1ccc(Cl)cc1 | -0.2 | 5.0 | · | -1.7 | -0.1 | 0.729 | i
COc1ccc(CSc2nc(C)cc(=O)[nH]2)cc1 | · | 1.5 | -6.9% | · | -3.1 | 0.778 | ·
CCOC(=O)Cn1c(=O)c2c(nc(Br)n2Cc2ccccc2Cl)n(C)c1=O | 9.7 | -2.9 | 16.5% | · | -0.1 | 0.655 | ·
CC1CN(C(=O)CCC(=O)NCc2ccccc2)c2ccccc2O1 (stereo unspecified) | 6.0 | -1.4 | · | 0.0 | -1.2 | 0.643 | i
COc1ccc(CCNC(=O)CSCc2n[nH]c(=O)[nH]2)cc1OC | -1.1 | -0.2 | 9.1% | · | -0.2 | 0.702 | ·
Cc1cc(C)cc(OCc2ccc(C(=O)N3N=C(C(F)F)CC3(O)C(F)F)o2)c1 (stereo unspecified) | -2.9 | 3.6 | ? | · | · | · | ·
COc1ccc(-c2coc3cc(O)cc(O)c3c2=O)cc1OC | 0.3 | 0.1 | · | 1.2 | 4.0 | 0.746 | i
CCOC(=O)N1CCN(C(=O)c2cnn3c(C(F)(F)F)cc(-c4cccs4)nc23)CC1 | 6.1 | -1.5 | 2.7% | -2.3 | -41.0 | 0.726 | i
Cc1cccc(C(=O)N2CCCC(Nc3ccc(C(C)C)cc3)C2)n1 (stereo unspecified) | -0.1 | 5.3 | 0.7% | 1.7 | -1.2 | 0.673 | i
CC(C)(C)c1ccc(OCc2ccc(C(=O)Nc3cccnc3)o2)cc1 | -1.3 | -4.9 | · | 3.4 | 3.5 | 0.704 | i
Nc1ncc([N+](=O)[O-])c(N2CCCCCC2)n1 | -4.8 | 0.6 | · | 0.4 | 5.3 | 0.644 | i
CCOc1ccc(CCNC(=O)COC(=O)Cc2ccc(F)cc2)cc1OCC | 3.3 | 2.0 | 7.3% | 2.2 | 0.4 | 0.608 | i
O=C(N/N=C/C(Br)=C\c1ccccc1)c1n[nH]c2c1CCC2 | 7.2 | 0.8 | 0.9% | · | · | · | ·
Cc1cccc(NC(=O)c2ccccc2NC(=O)CCC(=O)O)c1 | 2.9 | 1.5 | · | -6.2 | -1.0 | 0.713 | i
COC(=O)c1ccccc1S(=O)(=O)N1CCC(NC(=O)C(Cc2cccc(OC)c2OC)NC(C)=O)CC1 (stereo unspecified) | 4.7 | -0.7 | · | -4.6 | 0.4 | 0.685 | i
CCOc1ccc(NC(=O)C2CCCN(c3cnccn3)C2)cc1 (stereo unspecified) | 1.8 | 21.8 | · | -0.4 | -11.4 | 0.655 | i
CC1C(=O)C(C)C(c2ccccc2)N(N=O)C1c1ccccc1 (stereo unspecified) | · | -1.4 | -4.9% | 0.9 | · | · | i
C/C(Cn1cnc([N+](=O)[O-])n1)=N\NC(=O)c1ccccc1O | -0.6 | 4.2 | 22.5% | 0.1 | · | · | i
Cn1c(N)c(C(=O)COC(=O)[C@@H]2CCCN2S(=O)(=O)c2ccc(Cl)cc2)c(=O)n(C)c1=O | 1.1 | -4.6 | -7.4% | -0.9 | 5.1 | · | i
COc1c(/C=N/NC(=O)c2ccncc2)c(CCN(C)C(C)=O)cc2c1OCO2 | 2.8 | -0.8 | -1.1% | -0.6 | · | · | i
CSCC[C@H](NC(=O)OC(C)(C)C)C(=O)N1CCC(C(=O)NCC(=O)Nc2ccc(C)cc2)CC1 | -4.3 | -1.2 | · | 1.0 | 1.1 | 0.674 | i
Cc1ccc(NC(=O)Nc2ccc(F)cc2)nc1 | 2.5 | 1.8 | 0.0% | · | -1.2 | 0.665 | ·
CCOC(=O)[C@@H]1[C@H]2COc3ccccc3[C@@H]2N2C(=O)N(c3ccc(Br)cc3)C(=O)[C@]12C | · | -0.4 | · | 2.1 | -5.8 | 0.779 | i
COc1cccc(CNC(=O)CCC2CCCN(C/C=C/c3ccccc3OC)C2)c1 (stereo unspecified) | -3.6 | -1.3 | 0.9% | 6.5 | -2.1 | 0.693 | i
CSC1=C(C#N)C(c2ccccc2)C(C(C)=O)=C(C)N1 (stereo unspecified) | 2.1 | -3.0 | 6.1% | -2.1 | 0.8 | 0.664 | i
CCN(CC)S(=O)(=O)c1cc(C(=O)Oc2ccccc2OC)ccc1OC | 5.1 | 0.3 | -1.4% | · | 3.8 | 0.738 | ·
CCn1c(C)c(P(c2ccccc2)c2ccccc2)[n+]2ccccc12 | -1.1 | 3.7 | · | -0.3 | 2.1 | 0.672 | i
C=CCN1C(=O)CSC1=Nc1ccc(O)cc1 | -1.3 | -1.8 | 0.4% | · | -1.2 | 0.665 | ·
O=C(Nc1cc(=O)[nH]c2ncnn12)c1ccco1 | 9.7 | -4.1 | · | -2.0 | 5.9 | 0.691 | i
Cc1ccc(N2CC(C(=O)NCc3n[nH]c(=O)c4ccccc34)CC2=O)cc1 (stereo unspecified) | 4.1 | 2.6 | -3.3% | -11.4 | 1.8 | 0.63 | i
NC1=NC2(CCCCC2)n2c(nc3ccccc32)N1 | 2.4 | 1.9 | 3.7% | · | 5.3 | 0.715 | ·
COCCOc1ccc(C(F)(F)F)cc1NC(=O)c1ccc(F)cc1 | 2.2 | -0.6 | 0.4% | · | 0.5 | 0.655 | ·
COc1cc(OC)cc(C(=O)N[C@H](C(=O)OCC(=O)c2c[nH]c3ccccc23)C(C)C)c1 | · | 7.3 | -0.3% | 1.0 | -0.6 | 0.662 | i

Reformatted: two of the compounds above
canonical_smiles,RanGTP-Impb inh,HNF4A DNA FP,Vif A3G,MLL AF4-AF9 inh,UCH37 DUB inh,E coli growth,FGF22 binding
O=C(NC1CCCC1)C1=COCCO1,0.5,5.0,-3.9%,·,·,0.708,·
Cc1cccc(NC(=O)c2ccccc2NC(=O)CCC(=O)O)c1,2.9,1.5,·,-6.2,-1.0,0.713,i

From PubChem BioAssay

Some of the compounds tested; the hit share may differ from the screen's.
